From PubChem BioAssay
Rango dissoc inh = inhibition of RanGTP-driven Rango-importin beta dissociation; O95149+P62826; Biochemical FRET Rango-importin beta, RanGTP-induced dissociation; Potency, µM (doses to about 46.1 µM), for the others: top-dose activity change, negative = inhibition; actives 0.071% (n = 340,000); AID 540253; active means falling FRET ratio curve, often poorly fitted, with flat reads before Ran was added; inconclusive means other falling curves, or compound fluorescence or quenching; inactive means flat or rising ratio curve;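 note: potency is the fitted concentration of half-maximal effect; % of control where 0% means no effect; nearly all actives have a fitted effect of over 45% in size; -100% = wells without RanGTP and RCC1; the record marks most hits as doubtful in a second field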
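Quantitative HTS using a FRET biosensor: 0.1 uM Rango, 0.25 uM importin beta, 0.6 uM Ran, 2 mM GTP, 0.2 uM RCC1 final, PBS with DTT, Tween-20 and BSA. Post-read taken 45 min after Ran addition.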
miR-21 FLuc = raises the signal of a miR-21 reporter | HeLa miR-21 FLuc reporter, luciferase, 48 h | Potency, µM (titrated, usually from 38.3 µM), inactives show at the top dose reporter change, positive = more light | 340,000 tested, under 10 active | AID 2288; active = well fitted rising curve with a large enough effect; inconclusive = small, poorly fitted or top-dose-only effect; inactive = no such curve, though single readings can be large or run the other way;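 note: % of control where 0% means no effect; miR-21 action dims this reporter so a rising signal means less miR-21 action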
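Using DMEM plus 10% FBS, HeLa miR-21-FLuc cells are incubated with test compounds (final up to about 40uM) for 48 hours; firefly luciferase signal is then imaged following reagent-mediated lysis.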
GLA inh pH 4.5 = inhibitors of human alpha-galactosidase A at pH 4.5; activity change, negative = inhibition, % at 105 µM; purified enzyme, 4-MU-alpha-Gal fluorescence, pH 4.5; AID 1467; 230,000 tested, under 10 active; P06280; inconclusive = small, poorly fitted or top-dose-only inhibition, or a rising curve; inactive = flat fitted curve, though single readings scatter; no compound was filed as active;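 note: 0% = full activity with enzyme and -100% = basal without enzyme; dose as in the result columns while the protocol names 77 µM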
Target sequence (P06280 whole entry, looked up): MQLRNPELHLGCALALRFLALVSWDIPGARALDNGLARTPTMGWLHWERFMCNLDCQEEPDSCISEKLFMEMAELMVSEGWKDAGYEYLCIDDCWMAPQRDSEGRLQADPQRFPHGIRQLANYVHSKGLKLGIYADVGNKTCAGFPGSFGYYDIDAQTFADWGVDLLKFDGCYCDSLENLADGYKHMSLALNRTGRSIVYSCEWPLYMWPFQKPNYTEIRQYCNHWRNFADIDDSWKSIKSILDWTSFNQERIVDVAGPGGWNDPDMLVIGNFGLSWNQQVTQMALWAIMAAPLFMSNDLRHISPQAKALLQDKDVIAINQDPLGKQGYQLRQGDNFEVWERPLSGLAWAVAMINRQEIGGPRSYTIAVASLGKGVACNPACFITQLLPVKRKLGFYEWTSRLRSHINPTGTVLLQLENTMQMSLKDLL
Rango-impB inh = inhibitors of Rango-importin beta complex formation; AID 540263; Rango CFP/YFP FRET sensor + importin beta, 45 min; actives 0.031% (n = 340,000); Potency, µM (titrated, usually from 92.2 µM), without a hit: at the top dose inhibition of complex formation; active = rising FRET ratio curve, often small or poorly fitted; inconclusive = mostly compound fluorescence or quenching in the first reads; inactive = flat curves in all reads;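 note: potency is the fitted concentration of half-maximal effect; 0% = DMSO wells and 100% = buffer wells lacking importin beta; nearly all actives have a fitted effect of over 15% in size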
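Inhibition scored from the CFP 486 nm/YFP 530 nm FRET ratio 45 min after adding 0.125 microM importin beta to 50 nM Rango biosensor preincubated 5 min with compound (room temperature, PBS with DTT, Tween-20, BSA). No-importin wells as positive control.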
An asterisk follows results filed as active; ? = inconclusive; · = no result given. Some of the compounds tested, so the mix of outcomes need not match the whole.

SMILES	Rango dissoc inh	miR-21 FLuc	GLA inh pH 4.5	Rango-impB inh
COc1ccc(NC(=O)CCOc2ccc(C)cc2)c(OC)c1	-7%	-7%	·	-1.0%
CC1CCCCN1C(=O)COC(=O)CNC(=O)c1ccc(Cl)cc1Cl (centres undefined)	-8%	·	·	-0.5%
COc1ccc(-c2cc(-c3ccccc3)nc(N3CCCC3)n2)cc1OC	-6%	1%	1	?
CC(C)NS(=O)(=O)c1ccc(NC(=O)C(C)Oc2ccc(C(=O)c3ccccc3)cc2)cc1 (centres undefined)	61%	28%	-3	0.6%
O=C1CC(N2CCN(c3ccc(F)cc3)CC2)C(=O)N1c1ccccc1 (centres undefined)	13%	-4%	?	-0.7%
Cc1cc(C)n2nc(C(=O)NCC(=O)Nc3ccc(F)c(F)c3)nc2n1	-12%	·	·	-4.9%
O=C(Nc1ccc(N2CCCC2)c(Cl)c1)c1ccc2c(c1)OCCO2	-22%	·	·	5.6%
CC(=O)N1CCN(CC(=O)Nc2c(Cl)ccc(C)c2Cl)CC1	6%	-1%	-1	5.7%
CC(=O)NN1C(=O)/C(=C2/Sc3ccccc3N2C)SC1=S	?	3%	·	?
Cc1cc(=O)n2nc(N3CCCC(C(=O)N4CCc5ccccc54)C3)sc2n1 (centres undefined)	1%	1%	2	0.9%
COc1ccc(S(=O)(=O)N2CCN(C(=O)C3CC(=O)N(c4ccccc4F)C3)CC2)cc1OC (centres undefined)	4%	·	·	0.4%
COc1cc(NC(=O)N[C@@H](Cc2ccccc2)C(=O)O)cc(OC)c1	5%	-5%	8	0.1%
O=C(Cc1ccccc1F)NC1CCCc2ccccc21 (centres undefined)	-12%	-11%	·	-1.2%
Cc1ccc(-c2ccc(=O)n(CC(=O)NCc3ccco3)n2)cc1	1%	-1%	-4	0.0%
COC(=O)c1nc2n(n1)C(c1ccccc1OC)C1=C(CCCC1=O)N2 (centres undefined)	-14%	-2%	-4	0.0%
Cc1ccccc1NC(=O)CN(C)S(=O)(=O)c1ccc2c(c1)n(C)c(=O)c(=O)n2C	6%	0%	·	-0.1%
CN(CC(=O)Oc1ccc(-c2nnco2)cc1)S(=O)(=O)c1ccc(F)cc1	5%	·	·	-3.6%
Cc1ccc2c(c1)C1CN(C)CCC1N2C(=O)c1ccccc1NS(=O)(=O)c1cccc(C(F)(F)F)c1 (centres undefined)	-4%	-11%	5	-1.7%
Cc1cc(NS(=O)(=O)c2ccc(NC(=O)c3cccc(OC(F)F)c3)cc2)nc(C)n1	-5%	-4%	-17	0.3%
CC(=O)N1N=C(c2ccccc2)CC1c1ccccc1 (centres undefined)	4%	-9%	·	3.9%
COc1ccc(-c2csc(N3C(=N)SCC3=O)n2)cc1	-1%	-58%	7	0.2%
O=C(O)CCN1C(=O)C2C3c4ccccc4C(c4ccccc43)[C@@H]2C1=O (some centres undefined)	9%	-3%	0	0.1%
COc1cc(OC)cc(-c2c(-c3ccc(F)cc3)c3cc(-c4ccc5c(c4)OCCO5)ccc3n2C)c1	-10%	·	·	-0.7%
COc1cc2cc(C(c3nnnn3C3CCCC3)N3CCCCCC3)c(=O)[nH]c2cc1OC (centres undefined)	?	-1%	-1	?
COc1ccc(OC)c(C(=O)NC(CC(N)=O)c2ccc(NCC3CC3)c([N+](=O)[O-])c2)c1 (centres undefined)	-9%	-7%	·	3.1%
CSC1=NCCN1C(=O)c1c(F)cccc1F	-9%	-9%	8	0.0%
O=C(/C=C/c1ccc(Cl)cc1)NCc1ccco1	-8%	-44%	4	-0.2%
CCOc1ccc(C(=O)O/N=C(\N)c2ccc([N+](=O)[O-])cc2)cc1OCC	3%	-2%	0	1.7%
O=C(OCCc1cc2ccccc2c(=O)o1)c1cccs1	21%	·	·	-1.5%
COCc1ccc(C(=O)N(C)CC2CCCN(CCc3ccc(Cl)cc3)C2)o1 (centres undefined)	1%	4%	·	4.0%
COc1cccc(/C=N/NC(=O)C(=O)N2CCCC2)c1O	0%	-24%	5	3.1%
S=C(Nc1cc(Cl)cc(Cl)c1)NC1CCN(Cc2ccccc2)CC1	42%	27%	·	6.2%
COc1ccc(CNC(=O)CSC(=S)N2CCCC2)cc1	33%	·	·	4.6%
CCCCNC(=O)N(O)C1N(/N=C/c2ccccc2F)C(=S)SC1(C)C (centres undefined)	0%	-6%	·	-1.4%
CC(C)C(NS(=O)(=O)c1ccccc1)C(=O)N1CCCC1 (centres undefined)	8%	0%	·	-4.1%
O=C(CSc1nnnn1-c1ccccc1)NC(=O)NCc1ccco1	-7%	-6%	5	3.1%
CC1CN(C(=O)COC(=O)c2cccc(S(=O)(=O)N3CCc4ccccc43)c2)CC(C)O1 (centres undefined)	0%	·	·	-1.7%
CCCCC1CCC(C(=O)N(CC(C)C)c2c(N)n(CCCC)c(=O)[nH]c2=O)CC1 (centres undefined)	0%	·	·	0.3%
O=C(NCCCN1CCCC1=O)C1CCN(S(=O)(=O)c2c(Cl)cccc2Cl)CC1	19%	·	·	-0.9%
Cc1ccc(CCN2CC(C(=O)NCCC(C)C)CC2=O)cc1 (centres undefined)	-9%	-2%	·	3.9%
CCN(CC)CC(C)OC(=O)c1cc(OC)c(OC)c(OC)c1 (centres undefined)	0%	-1%	-3	-4.0%
O=C(COC(=O)c1ccccc1O)Nc1cccnc1Cl	17%	0%	-3	-1.4%
CCCCOc1ccc(C(=O)Nc2ccc(CN3CCOCC3)cc2)cc1	-2%	14%	·	1.5%
Cc1cccc(N2Cc3ccccc3C2=NC(=O)c2ccc(Cl)nc2)c1	5%	-56%	-1	-0.1%
CCC(C)(C)n1nnnc1C(c1ccncc1)N1CCC(C)CC1 (centres undefined)	-3%	-11%	0	-1.1%
COc1cc(OC)cc(C(=O)N2CCN=C2SCc2cccnc2)c1	19%	-15%	-2	-5.1%
C/C(=C\C(=O)c1ccccc1)NNC(=O)c1ccc(Cl)cc1	-9%	-33%	·	-0.7%
Cc1ccccc1S(=O)(=O)Cc1ccc(C(=O)NCCN(C)Cc2ccccc2)o1	-5%	2%	·	0.0%
N/C(=N\c1nc2ccccc2o1)NC(=O)/C=C/c1ccccc1	-5%	-7%	-3	-1.3%
Cc1ccc(CNC(=O)C2CCN(S(=O)(=O)N3CCCC3)CC2)cc1	21%	-2%	·	0.0%
CCOC(=O)c1c(NC(=O)c2ccn(CC)n2)sc2c1CCCC2	-17%	-10%	-17	-0.6%
CN(C)CCNC(=O)C(=O)NCC1OCCN1S(=O)(=O)c1ccc([N+](=O)[O-])cc1 (centres undefined)	-1%	3%	1	5.7%
CN(CC(=O)Nc1cccc(S(=O)(=O)NC2=NCCCCC2)c1)Cc1ccc(C(C)(C)C)cc1	9%	8%	-18	2.2%
CCC(C)NC(=O)CN(c1ccc(Cl)c(Cl)c1)S(C)(=O)=O (centres undefined)	0%	1%	-2	-1.8%
O=C(Nc1nc(-c2ccccc2)cs1)c1cccs1	12%	-21%	-2	-0.3%
CCn1cc(CCC(=O)NC2CCCC2)c2ccccc21	21%	-1%	·	-2.1%
COc1ccc(S(=O)(=O)n2nc(OC(=O)c3ccccc3)cc2N)cc1	0%	-6%	-1	-1.1%
CC(C)Oc1ccc2c(c1)OC(c1ccccc1)(C(F)(F)F)NC2=O (centres undefined)	1%	17%	-4	-1.1%
O=C(NCc1cc(C(F)(F)F)ccc1Cl)c1cccc2c1C(=O)c1ccc(N3CCCCC3)cc1S2(=O)=O	?	·	·	?
COc1cc(C(=O)NC(=S)N2CCN(C)CC2)cc(OC)c1OC	4%	·	·	3.1%
(cont.)
SMILES	Rango dissoc inh	miR-21 FLuc	GLA inh pH 4.5	Rango-impB inh
CN1CCC/C1=C/C=C1\SC(=S)NC1=O	?	-57%	-9	?
CC(=O)Nc1ccc(NC(=O)c2cccc(C(=O)OC(C)C)n2)cc1	-9%	-9%	-2	-1.6%
CN(Cc1ccc(O)cc1)C1CCCCC1	13%	-2%	-7	-1.3%
Cc1ccc(OCc2nnc(SCC(=O)NCc3ccccc3)n2C)cc1	11%	-5%	-3	4.1%
CCOC(=O)C1=C(C)N(C)C(=O)NC1c1c(C)nn(-c2ccccc2)c1C (centres undefined)	-1%	-4%	1	0.7%
O=C(COC(=O)c1ccc(F)cc1Cl)NCc1ccco1	1%	·	·	-1.5%
NS(=O)(=O)c1ccc(NC(=S)NNC(=O)CCC(=O)Nc2ccccc2Cl)cc1	4%	0%	·	3.5%
CSc1nc(-c2ccccc2)cc(C(F)(F)F)c1C#N	6%	0%	-2	0.6%
Cn1c(C(=O)c2ccccc2[N+](=O)[O-])nc2ccccc21	0%	0%	2	1.4%
CCCCN(C)C(=S)Nc1ccsc1C(=O)OC	-6%	-2%	6	0.2%
CCc1ccccc1NC(=O)NC1CC2CCC(C1)N2Cc1ccco1 (centres undefined)	-11%	-1%	1	-2.7%
COc1cc(/C=C2\C(=N)N3N=C(C)SC3=NC2=O)cc(OC)c1OCCOc1ccccc1C	?	-6%	·	?
COc1cccc(C(NC(C)=O)c2ccc3cccnc3c2O)c1 (centres undefined)	12%	25%	·	-2.2%
Cc1ccc(S(=O)(=O)N2c3cc(C)ccc3OCC2C(C)(C)C)cc1 (centres undefined)	-13%	25%	-7	0.6%
Cc1cc2nccc(-c3ccncc3)n2n1	-20%	12%	2	-2.3%
COc1cc(OC)c(OC)cc1CNCCNC(=O)c1ccco1	-2%	8%	·	-1.8%
COc1ccc(C(=O)Oc2c(OC)cc(C(=S)N3CCOCC3)cc2OC)cc1	9%	6%	·	6.2%
CCOc1ccccc1OCCC(=O)OCC(=O)Nc1c(C)cc(C)cc1C	30%	·	·	-3.9%
COc1ccc(C(=O)NC2CC2)cc1OC1CCN(Cc2ccccc2O)CC1	12%	-3%	·	4.3%
Cc1oc(CSCC2CCCO2)cc1C(=O)O (centres undefined)	16%	-7%	2	-2.0%
COc1ccc(-c2nn(C)c(=O)c3ccccc23)cc1NS(C)(=O)=O	-8%	-15%	6	?
Nc1nnc(SCCOc2cccc(Br)c2)s1	-4%	-33%	-8	-2.2%
CCOC(=O)c1c(-c2ccccc2)oc2ccc(OC(C)=O)cc12	1%	-6%	1	-1.2%
CCn1c(SCC(=O)Nc2cc(C)on2)nnc1-c1ccc(C)cc1	0%	-3%	·	-3.3%
CCCCOc1ccc2c(c1)/C(=C(\C(Cl)=C(Cl)Cl)[N+](=O)[O-])N2	?	-6%	-1	?
COC(=O)c1c(NC(=O)C2COc3ccccc3O2)sc2c1CCN(Cc1ccccc1)C2 (centres undefined)	-22%	13%	2	?
O=C(CCCOc1ccc(Cl)cc1)NCC1CCCO1 (centres undefined)	22%	-4%	-5	1.6%
COc1ccc2c(c1)C(=O)N(c1ccc(C)cc1C)C(=O)C2	?	-2%	-5	-4.1%
Cc1cc(C)c2c(n1)SCC(=O)N2CC(=O)Nc1ccc(F)cc1	2%	-5%	·	-3.6%

4 compounds already listed, ordered by the value under GLA inh pH 4.5, lowest first:
SMILES	Rango dissoc inh	miR-21 FLuc	GLA inh pH 4.5	Rango-impB inh
Nc1nnc(SCCOc2cccc(Br)c2)s1	-4%	-33%	-8	-2.2%
COc1ccc2c(c1)C(=O)N(c1ccc(C)cc1C)C(=O)C2	?	-2%	-5	-4.1%
CCOC(=O)c1c(-c2ccccc2)oc2ccc(OC(C)=O)cc12	1%	-6%	1	-1.2%
Cc1oc(CSCC2CCCO2)cc1C(=O)O (centres undefined)	16%	-7%	2	-2.0%

Fetched one by one from the list above (three):
SMILES	Rango dissoc inh	miR-21 FLuc	GLA inh pH 4.5	Rango-impB inh
CCOc1ccccc1OCCC(=O)OCC(=O)Nc1c(C)cc(C)cc1C	30%	·	·	-3.9%
CCn1c(SCC(=O)Nc2cc(C)on2)nnc1-c1ccc(C)cc1	0%	-3%	·	-3.3%
COC(=O)c1c(NC(=O)C2COc3ccccc3O2)sc2c1CCN(Cc1ccccc1)C2 (centres undefined)	-22%	13%	2	?
